Bioassay records deposited in PubChem BioAssay by National Center for Advancing Translational Sciences (NCATS).
Bst PK mod – pyruvate kinase (B. stearothermophilus) modulation; Potency, µM; partly purified Bacillus stearothermophilus pyruvate kinase, luminescence ATP production; ribose 5-phosphate activator present at AC10; hit rate 1.2% among 51,000; AID 361; in the data active means potency below about 11 µM; inconclusive means mostly about 12 µM to 25 µM; inactive means weaker than that;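 the screen sought inhibitors and activators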;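 also: potency is read from the fitted curve at half-maximal effect; scaled between full activation by ribose 5 phosphate and full inhibition by luteolin; about four in five hits inhibit and the cells do not say which; series up to 57 µM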
YjeE inh – YjeE (TsaE) inhibition, E. coli; purified YjeE, fluorescence polarisation of a bound ADP probe; Potency, µM; hit rate 0.05% among 71,000; AID 605; active = well fitted falling curve; inconclusive = weaker or top-dose-only fall, or a rising curve; inactive = flat or poorly fitted curve;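 also: top concentration of the series not given in the record; excess ADP was the control for the full effect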
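Fluorescence polarization of a BODIPY Texas Red–ADP probe (2 uM) bound to purified YjeE (10 uM) was read after 15 min room-temperature incubation with compounds. Loss of polarization marks inhibitors; ADP serves as titrated control.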
Starred values were filed as active, the others as inactive; i = inactive; . = no result given; & = joins results of further samples.

Sample of the layout (four entries):
mol	Bst PK mod	YjeE inh
COC(=O)c1c(NC(=O)c2ccco2)sc(C(=O)Nc2ccc(F)cc2)c1C	>57	i
O=C(CC(c1ccccc1)c1ccco1)N1CCOCC1 (centres undefined)	>26	.
CCOC(=O)c1[nH]c2ccccc2c1NC(=O)c1ccco1	>57	i
CCCCC(=O)Nc1c(O)c2ccccc2[nH]c1=O	>26	.

The whole of this part, from the first entry:
mol	Bst PK mod	YjeE inh
COC(=O)c1c(NC(=O)c2ccco2)sc(C(=O)Nc2ccc(F)cc2)c1C	>57	i
O=C(CC(c1ccccc1)c1ccco1)N1CCOCC1 (centres undefined)	>26	.
CCOC(=O)c1[nH]c2ccccc2c1NC(=O)c1ccco1	>57	i
CCCCC(=O)Nc1c(O)c2ccccc2[nH]c1=O	>26	.
COc1ncc2nc(-c3cc(F)cc(F)c3)c(=O)n(C)c2n1	.	i
COc1ccc(N2CCN(c3ncnc4nc[nH]c34)CC2)cc1	.	i
CCOc1ccc(NC(=O)CSc2nnc(-c3ccco3)n2C)cc1	>57	i
COc1ccc(-n2c(C)nc3cc(C(=O)NCc4ccco4)ccc32)cc1	>57	i
CCc1cc2c(SCC(=O)C(C#N)=C3N(C)c4ccccc4N3C)ncnc2s1	.	i
CCN(C1CCCCC1)S(=O)(=O)c1cn(C)c(=O)n(C)c1=O	.	i
Cc1cccc(CNc2cc(-c3cccc(NS(C)(=O)=O)c3)ncn2)c1	.	i
COC(=O)C(NC(C)=O)(Nc1ccc(Br)cn1)C(F)(F)F (centres undefined)	>26	.
Nc1nc(NC(=O)c2cccc(S(=O)(=O)N3CCCCCC3)c2)nc(-c2ccccc2)n1	>57	i
CCN(CC)C(=O)N1CCN(C)CC1	.	i
Cc1oc2cc3c(C(=O)N4CCN(C)CC4)c(C)oc3cc2c1C(=O)N1CCN(C)CC1	>57	i
COc1cc2nncc(SCc3ccc(Cl)c(Cl)c3)c2cc1OC	.	i
Cc1ccc(C(=O)N2CCN(c3cccc(Cl)c3)CC2)cc1C	.	i
O=C1C2=C(SCCS2)C(=O)N1CCCO	.	i
CCCOc1c(OC)cccc1C1CC(=O)Nc2cc3c(cc21)OCO3 (centres undefined)	>57	i
COc1ccc(NC(=O)CNS(=O)(=O)c2cccs2)cc1	>57	i
Cc1cccc(-n2ccnc2SCC(=O)Nc2cc(C)on2)c1	>57	i
COC(=O)CCc1c(C)nn(-c2ccccc2)c1C	>57	i
CCc1[nH]nc2c1C(C(C)C)C(C#N)=C(N)O2 (centres undefined)	>57	i
O=C(Nc1ccc(Cl)cc1)NC1CCCC1Cc1ccco1 (centres undefined)	>57	i
CN(C(=O)C1CCCO1)c1nnc(-c2cnccn2)s1 (centres undefined)	>57	i
Cc1cc(CNC(=O)[C@H]2C[C@@H]2[C@H](NP(=O)(c2ccccc2)c2ccccc2)c2ccccc2)nn1C	.	i
CCOc1ccc(C2/C(=C(/O)c3ccc(F)cc3)C(=O)C(=O)N2CCCN(C)C)cc1 (centres undefined)	>26	.
COCCn1c(SCC(=O)Nc2ncc(C)s2)nc2sc3c(c2c1=O)CCC3	>57	i
COc1ccc(NC(=O)Cc2nnc(SCC(=O)Nc3cc(C)ccc3OC)n2C)cc1	>57	i
CCOC(=O)c1csc(NC(=O)c2ccc(S(=O)(=O)N(CC)CC)cc2)n1	>57&>57	i
Cc1cc(NC(=O)CSc2nnc(COc3cccc(C)c3C)n2C)no1	>57	i
Cc1ccc(NC(=O)Cn2nc(C)c3ccccc3c2=O)c(C)c1	>57	i
COc1cccc(/C=N/n2c(SC)nnc2-c2ccccc2)c1OC	.	i
CCN1CCN(c2c(Cl)cccc2NC(=O)c2ccco2)CC1	>57	i
O=c1c2[nH]c3ccc(F)cc3c2ncn1C1CCCCC1	>57	i
CC1(C)C/C(=C(/C#N)C(N)=O)CCO1	>26	.
O=C(Nc1ccccc1C(=O)O)c1cccc(NC(=O)c2ccc(Br)o2)c1	i	i
CC(=O)c1ccc(NC(=O)c2ccn[nH]2)cc1	.	i
C=CCn1cc(C(=O)NCC2CCCO2)c(=O)c2cc(S(=O)(=O)N3CCCCCC3)ccc21 (centres undefined)	>57	i
CC(C)Nc1nc(NC(C)C)nc(N(C)n2cnnc2)n1	>26	.
O=[n+]1cc(-c2ccc(F)cc2)n([O-])c2c1CCC2	>57	i
O=C(Nc1ccc(NC(=O)c2cccs2)cn1)c1ccco1	7.2*	i
CN(C)Cc1ccccc1-c1nc(NCc2ccccc2)c2ccccc2n1	.	i
Cc1noc(C)c1C(=O)OCC(=O)c1cc(C)n(Cc2ccccc2Cl)c1C	.	i
Cc1ccc(S(=O)(=O)Nc2ccc3ncccc3c2)cc1	i	i
COc1ccc2nc(NC(=O)CSc3nnc(-c4ccoc4C)n3C)sc2c1	>57	i
Cc1c(O)c(Br)c(C)c(O)c1Br (tested in a mixture with another compound)	.	i
Cc1cc(NC(=O)c2cc(-c3cccs3)on2)no1	>57	i
COC(=O)c1cc(NC(=O)CSc2nc(C)cc(=O)[nH]2)cc(C(=O)OC)c1	>57	i
CCC(C)n1cnc2c(c1=O)c1nc3ccccc3nc1n2Cc1ccc2c(c1)OCO2 (centres undefined)	>57	i

(further entries)
mol	Bst PK mod	YjeE inh
CCc1ccccc1NC(=O)CSc1nnc([C@@H]2CCCN2C(=O)OC(C)(C)C)o1	>57	i
CCNC(=O)NC(=O)COc1ccccc1C#N	>57	i
O=C(CSc1nc2ccccc2c(=O)[nH]1)N1CCCCCC1	>57	i
Cc1csc(=N)n1-c1ccc(Cl)cc1	i	i
Cc1ccc(N2C(=O)CC(Cn3nc(C)cc3C)C2=O)cc1 (centres undefined)	>26	.
Cc1nc2ccccc2c(=O)n1NC(=O)c1c(O)c2ccccc2n(C)c1=O	.	i
CSc1ccccc1NC(=O)c1noc2c1CCC2	>57	i
O=C(O)c1ccc(-c2ccccc2C(F)(F)F)o1	>57	i
c1ccc(-c2[nH]ncc2-c2nc3ccccc3[nH]2)cc1	>57	i
NC(=O)CSc1nc(-c2ccccc2Cl)ns1	>57	i
NC(=O)CCS(=O)(=O)c1ccccc1	.	i
CC(=O)C1=C(O)C(=O)N(Cc2ccco2)C1c1ccc2c(c1)OCO2 (centres undefined)	>57	i
O=C(COC(=O)C1CCCN1S(=O)(=O)c1ccc(Cl)cc1)Nc1ccc2c(c1)OCO2 (centres undefined)	i	i
Cn1cccc1C(=O)N1CCC2(CC1)CCN(C(c1ccccc1)c1ccccc1)CC2	.	i
CCOC(=O)Cn1c(=N)n(Cc2ccccc2F)c2ccccc21	>57	i
CC1=CC(C)(C)Nc2ccc(OC(=O)c3cccnc3)cc21	.	i
C[N+]1(C)CCc2cc3c(cc2[C@@H]1[C@@H]1C(=O)Oc2c1ccc1c2OCO1)OCO3	.	i
O=C1CC(N2CCN(c3nc4ccccc4s3)CC2)C(=O)N1Cc1cccs1 (centres undefined)	>57	i
Cc1cc(N2CCOCC2)nc(SCC(=O)c2ccc(Cl)cc2)n1	>57	i
CC(=O)c1cccc(NC(=O)c2oc(C)nc2C)c1	>57	i
CCOC(=O)c1ccccc1NC(=O)c1cccc2c1C(=O)N(C1CCN(C(=O)OCC)CC1)C2	.	i
CCOC(=O)c1[nH]c(=O)[nH]c1COC(=O)c1cc2ccccc2o1	.	i
CCCCN(C(=O)NC(=O)C1=C(N2CCOCC2)/C(=C/c2ccccc2)CC1)S(C)(=O)=O	>57	i
CC1(C(=O)NCCc2c[nH]c3ccccc23)C=CCN1C(=O)c1ccccc1 (centres undefined)	.	i
COC(=O)[C@@]1(Cc2ccc(F)cc2)[C@H]2c3cc(C(=O)N4CCCC4)n(CCc4ccc(OC)c(Br)c4)c3C[C@H]2CN1C(=O)c1ccccc1	.	i
CCOC(=O)c1c(C)[nH]c(C(=O)COC(=O)c2cnc(C)cn2)c1C	>57	i
Cc1c(C(=O)OCC(=O)c2ccc3c(c2)OCCO3)oc2ccccc12	>57	i
CCOC(=O)N1CCC(NC(=O)Cn2c3c(c(-c4ccccc4Cl)cc2=O)CCC3)CC1	.	i
COC(=O)c1ccccc1NC(=O)c1cnn2c(C(F)F)cc(C3CC3)nc12	>57	i
CCOC(=O)c1nnn(-c2nonc2-n2cccc2)c1CN1CCC(C)CC1	>57	i

Bst PK mod, hit marks shown above.
mol	Bst PK mod	YjeE inh
O=C(Nc1ccc(NC(=O)c2cccs2)cn1)c1ccco1	7.2*	i

(continued)
mol	Bst PK mod	YjeE inh
CC1(C)CC(=O)c2c(O)cc(O)cc2O1	>57	i
CN1CCN(c2cc(=O)n(-c3ccc(Cl)cc3)c(=O)[nH]2)CC1	.	i
Oc1c(CN2CCOCC2)ccc(CN2CCOCC2)c1O	.	i
COc1ccc(NC(=O)CSc2nnc(CN3CCOCC3)n2-c2ccccc2)cc1Cl	>57	i
O=C(NC1CCCc2ccccc21)C1CCN(S(=O)(=O)N2CCCCCC2)CC1 (centres undefined)	.	i
Fc1ccc(-c2nn3c(C4COc5ccccc5O4)nnc3s2)cc1 (centres undefined)	>57	i
O=C(O)c1ccccc1C(=O)OCc1ccccc1	.	i
Clc1ccccc1C(Nc1cnccn1)Nc1cnccn1	.	i
COc1ccc(N2C(=O)CC(Cc3ccccc3)C2=O)cc1 (centres undefined)	>57	i
Cc1cc(C)cc(-c2nnc(SCC(=O)NCc3cccs3)o2)c1	>57	i
CCCCOc1ccc(NC(=O)CN2CCN(C(=O)OCC)CC2)cc1	>57	i
O=C(NCc1ccccn1)c1ccc(Cl)cc1Cl	>57	i
CN1C(=O)c2c(sc3c2CCCC3)NC1c1ccccc1O (centres undefined)	>26	.
Cc1cc(NC(=O)c2cnn3cccnc23)n(-c2ccccc2)n1	.	i
O=c1c2ccccc2oc2cc(O)c([C@@H]3COC[C@@H](CO)[C@@H](O)[C@@H](O)[C@H]3O)c(O)c12	.	i
CC(=O)N1CCN(C(=O)CCc2c[nH]c3ccccc23)CC1	>57	i
CC(C)(C)OC(=O)N1CCOCCOCCN(C(=O)OC(C)(C)C)CCOCC1	>57	i
CCn1c(COc2ccccc2)nnc1SCC(=O)Nc1cc(OC)ccc1OC	>57	i
c1ccc2c(c1)[nH]c1c(N3CCSCC3)ncnc12	i	.
NC(N)=[N+]1CCc2ccccc2C1	.	i
Cc1ccc(N(C(=O)c2ccc3c(c2)OCO3)C2C=CS(=O)(=O)C2)cc1 (centres undefined)	>57	i
CCOC(=O)Cc1csc(NC(=O)COc2ccc(OC)cc2)n1	.	i
COc1ccc(NC(=O)c2ccco2)cc1N	>57	i
COc1ccc(C)cc1C(=O)C1CC(C(=O)O)C(C)(C)C1C (centres undefined)	>57	i
COc1ccccc1N1CCN(CCc2n[nH]c(=S)n2-c2ccccc2)CC1	.	i
Cc1cc(-n2c(C)cc(C(=O)CN3C(=O)NC4(CCCCC4C)C3=O)c2C)no1 (centres undefined)	>57	i
COc1ccc(S(=O)(=O)N2CCC(n3cnc4cc(C(F)(F)F)ccc43)CC2)cc1	>57	i
O=C1CCCC2=C1C1(CCCC1)N=C(Nc1nc3ccccc3o1)N2	>57	i
COc1cccc(-c2nc(CS(=O)CC(=O)NCCCOC(C)C)c(C)o2)c1 (centres undefined)	>57	i
CCCS(=O)(=O)N1CCCC(C(=O)NCCc2ccc(OC)c(OC)c2)C1 (centres undefined)	>57	i
COC(=O)C(C)Sc1nnc(Cc2cc(=O)[nH]c(=O)[nH]2)n1-c1ccc(Cl)cc1 (centres undefined)	.	i
O=C(Nc1cccc(Cl)c1)C1CCCN(S(=O)(=O)c2cnc[nH]2)C1 (centres undefined)	.	i
CCOc1ccc(NCCC(=O)c2ccc3c(c2)OCO3)cc1	>57	i
CSc1nnnn1CCn1nnnc1SC	>57	i
Cc1ccc(-c2nnn(CC(=O)N(c3cccc(F)c3)C(C(=O)NC3CCCC3)c3ccco3)n2)o1 (centres undefined)	>57	i
CCOc1ccc(CCNC(=O)C2CCCN(c3nn4c(=O)cc(C)nc4s3)C2)cc1OCC (centres undefined)	>57	i
CCC1CCCCN1c1nc(-c2cccc(OC)c2O)nc2ccccc12 (centres undefined)	>26	.
Cc1cc(OCC(=O)Nc2ccc(S(=O)(=O)N3CCN(C)CC3)cc2)cc(C)c1Cl	>57	i
COc1ccc2cc(C(c3nnnn3Cc3ccc(F)cc3)N3CCCCCC3)c(=O)[nH]c2c1 (centres undefined)	>57	i
CCc1nc(SCC(=O)Nc2cc(C)on2)c2c(C)c(C)sc2n1	>57	i
Cc1ccccc1-n1nnnc1-c1ccccc1	.	i
Cc1ccc2c(c1)N(CC(=O)c1cccc(Cl)c1)C(=O)C(C)O2 (centres undefined)	>57	i
CCc1c(C)sc(NC(=O)c2cc(-c3ccco3)on2)c1C#N	>57	i
CCOc1ccc(CC(=O)Nc2c(C(N)=O)oc3ccccc23)cc1OCC	>57	i
CCn1c(=O)c(C(=O)NCc2ccccn2)c(O)c2ccccc21	.	i
COc1cccc(-c2cc(C(=O)NCc3ccco3)no2)c1	.	i

A portion of the library; rates above refer to the full screens.
